Compound activity: PubChem BioAssay, SRMLSC
H5N1 antiviral – MDCK cell protection from H5N1 avian flu. cytopathic effect, luminescence, 72 h; stronger effect = higher value; no value below 0 was filed and about half of the inactive calls have no number; reference of the scale not given here. inhibition, % at 50 µM. 96,000 tested, 0.07% active; in the data active means inhibition above about 25%
Numbers without * were called inactive; i = inactive. An excerpt, so the mix of outcomes need not match the whole.

SMILES	H5N1 antiviral
CCC(=O)N1CCc2cc(Br)cc(S(=O)(=O)CCC(=O)NCC3CCCO3)c21 (configuration not stated)	0.8
Cc1[nH]nc(N=CC2=C(O)CC(c3ccco3)CC2=O)c1-c1ccc(Cl)cc1 (configuration not stated)	i
N#Cc1cc2ccc(N3CCOCC3)cc2cc1C#N	0.1
Cc1ccc(CSc2nnc(C(F)(F)F)n2Cc2ccc(F)cc2)cc1	1.1
C=CCS(=O)(=O)c1nc2ccccc2s1	0.8
CCn1c2ccccc2c2cc(/C=N/n3cnnc3)ccc21	0.6
CCCC(=O)NCCCc1nc2ccccc2[nH]1	i
CCOC(=O)CSc1nnc(CNC(=O)c2ccc(OC)cc2)n1Cc1ccccc1	2.5
CCOc1cc(C2NC(=O)NC(C)=C2C(=O)OCc2ccccc2)ccc1O (configuration not stated)	i
O=C(CCn1[nH]c(=O)c2ccccc2c1=O)NCCO	0.2
CCOC(=O)Cc1csc(NC(=O)CSc2nnc(Cc3csc(N)n3)n2C)n1	0.3
Cc1c(CN(C)C)c2c(n1C)C(=O)c1ccc(Br)cc1-2	0.1
COc1ccccc1C1CC(=O)NC(C)=C1C(=O)OCC(C)C (configuration not stated)	i
Cc1cc(C)nc(SCC(=O)c2ccc([N+](=O)[O-])cc2)n1	i
CCc1c(C)c2nncn2[nH]c1=O	0.5
O=C(NCCOc1nc(N2CCOCC2)nc(N2CCOCC2)n1)Nc1ccc(Cl)cc1	0.3
CCC(=O)N1CCc2cc(S(=O)(=O)CCC(=O)NCCc3ccccc3)ccc21	0.5
CCn1c(SCC(=O)N2CCN(c3ccccc3)CC2)nnc1-c1ccoc1C	1.0
CCOC(=O)C1CCCN(CC(=O)NC2=Nc3ccccc3N=C(C)C2c2ccccc2)C1 (configuration not stated)	i
NC(=O)C1(N2CCCCC2)CCN(C(=O)Nc2ccccc2C(F)(F)F)CC1	i
COc1ccc(S(=O)(=O)NNC(=O)C2Cc3c(ccc4ccccc34)O2)cc1 (configuration not stated)	3.7
C=C(C)Cn1c(=O)c(NC(=O)c2ccccc2)c2n(c1=S)CCC2	3.9
O=C(COC(=O)c1ccc2c(c1)OCCO2)NCCC1=CCCCC1	i
COc1ccc(-c2nnc(SCc3cc(C)cc(C)c3)o2)cc1	0.9
O=C(CN1CCN(c2ccc(Cl)cc2)CC1)Nc1cccc(F)c1	0.3
O=C(CN1C(=O)CSC1=O)NCc1ccccc1	i
CCOC(=O)c1cnn(-c2ncnc3sc(C)c(C)c23)c1N	0.2
CCOC(=O)c1cnc(-n2cc(C)cn2)nc1NCc1ccc2c(c1)OCO2	i
O=C(Nc1ccc(Cc2ccncc2)cc1)c1ccco1	i
O=C(C1CCN(S(=O)(=O)c2cnc[nH]2)CC1)N1CCn2c1nc1ccccc12	i
CC1=CCC(C(=O)O)C(C(=O)O)C1 (configuration not stated)	i
O=C(CSc1nnc(-c2cccs2)o1)OC1CCCCC1	1.6
CSc1ccc(CNC2CC2)cc1	0.9
Cc1nn(CCOc2ccccc2)c(=O)n1-c1c(F)cccc1F	i
c1ccc(N2CCN(c3cnc4ccccc4n3)CC2)cc1	i
COc1cc(C(=O)NCCOc2ccccc2)c(Br)c(OC)c1OC	i
Cc1ccc(CNC(=O)[C@@H]2CCC(=O)N2Cc2ccco2)cc1	0.0
O=C(O)c1sccc1SCc1ccc(Cl)cc1Cl	i
Cc1ccc(OC(=O)C(F)(F)F)c2c1NCCC2	i
CCn1c(N2CCC(Cc3ccccc3)CC2)nc2c1c(=O)[nH]c(=O)n2C	i
COCc1cc(=O)n2c(-c3ccc(C)cc3)n[nH]c2n1	i
Cc1ccc2c(c1)nnn2C1CCN(S(=O)(=O)c2ccc(C(=O)N(C)C)cc2)CC1	1.3
CCOc1ccc(Cl)cc1S(=O)(=O)n1cnc2ccccc21	i
CCOc1ccccc1NC(=O)c1ccccc1NS(C)(=O)=O	i
Cc1n[nH]c(C)c1CCc1nc2c3ccccc3nc(SCC(=O)Nc3ccccc3F)n2n1	i
O=C(c1ccc(C(F)(F)F)cc1)N1CCCCC1	i
C=CCN=C(C)C1=C(O)CCC1=O	0.3
CCOC(=O)c1c(C)[nH]c(O)c1C=Nc1ccc(Cl)cc1	i
O=C(Nc1sc2c(c1C(=O)c1ccc(Cl)cc1)CCCC2)c1cccnc1	1.8
Cc1nc2ccc(Cl)cc2nc(C)/c1=N\O	i
COC(=O)C(/C=N/OCc1ccc([N+](=O)[O-])cc1)NC(=O)c1ccccc1 (configuration not stated)	i
O=C(NCc1ccccc1)C1CCN(S(=O)(=O)N2CCOCC2)CC1	0.9
COc1ccc(C2C3=C(CC(C)(C)CC3=O)Nc3c2c(=O)[nH]c(=O)n3Cc2ccccc2)cc1 (configuration not stated)	i
CCOc1cc(/C=C2\N=C(SC)SC2=O)cc([N+](=O)[O-])c1OC(C)=O	i
CNS(=O)(=O)c1cc(OC)ccc1OC	i
O=C(c1cc(-c2ccncc2)nc2ccccc12)N1CCN(c2ccccn2)CC1	i
COCCNC(=O)COC(=O)CSCc1nc2ccccc2s1	1.0
CCCCN1C(=O)NC(NC(C)=O)(C(F)(F)F)C1=O (configuration not stated)	0.8
CCN(CC)CCCOc1nc(C)nc2c1oc1ccccc12	i
CCOC(=O)N1CCC(n2c(SCC(=O)NCc3ccco3)nc3ccsc3c2=O)CC1	0.7

A second format for part of the listing above.
smiles: Cc1nc2ccc(Cl)cc2nc(C)/c1=N\O
- H5N1 antiviral: i

smiles: COC(=O)C(/C=N/OCc1ccc([N+](=O)[O-])cc1)NC(=O)c1ccccc1 (configuration not stated)
- H5N1 antiviral: i

(further entries)
SMILES	H5N1 antiviral
COC(=O)[C@@H](NC(=O)N1CCN(c2cccc(C(F)(F)F)c2)CC1)C(C)C	2.0
CCN(C(=O)COC(=O)c1cccnc1SC)C1CCS(=O)(=O)C1 (configuration not stated)	i
Cc1cc(C)n(-c2cc(N3CCOCC3)ncn2)n1	0.4
CC1(C)CC(=O)C(Sc2nnc(-c3ccc(O)cc3)n2CC2CCCO2)C(=O)C1 (configuration not stated)	i
O=C1NCCCN1Cc1ccc(F)cc1Cl	i
COc1ccc(Nc2nc(C)cc(C)c2C(N)=O)c(OC)c1	0.2
O=c1cc(CN2CCN(c3ccc(F)cc3)CC2)nc2sccn12	0.8
Oc1ccc(C(=S)N2CCCCC2)cc1Cl	0.2
CCC(C)NC(=O)Cn1cc2c(n1)CCC(C)C2 (configuration not stated)	i
CC(=O)Nc1ccc(OCC(O)CN2CCN(S(=O)(=O)c3ccc(NC(C)=O)cc3)CC2)cc1 (configuration not stated)	0.4
N#Cc1nc(-c2cccs2)oc1NCCc1ccccc1	i
CCOC(=O)N1CCN(S(=O)(=O)c2cc(OCC(N)=O)c(C)cc2Cl)CC1	1.1
CCOC(=O)c1cc(-c2ccc(Cl)cc2)nc2c1c(C)nn2CCC#N	1.4
CCc1nnc(NC(=O)c2ccc(S(=O)(=O)N3CCCCC3C)cc2)s1 (configuration not stated)	0.2
CCOc1ccc(NC(=O)CN2C(=O)C3CC=CCC3C2=O)cc1 (configuration not stated)	1.2
NNC(=O)c1cccc(COc2cccc(Br)c2)c1	i
COc1cccc(OC)c1C(=O)NC(C)C12CC3CC(CC(C3)C1)C2 (configuration not stated)	0.5
CCOC(=O)C1=CSC2=NS(=O)(=O)CCN12	i
Cc1cc2cc(C(c3nnnn3Cc3ccco3)N3CCc4ccccc43)c(=O)[nH]c2cc1C (configuration not stated)	i
COC(=O)CSc1nc2cc3c(cc2cc1C)OCCO3	i
COc1ccc(OC)c(C2C(C(N)=O)=C(C)Nc3nc(-c4cccc(Cl)c4)nn32)c1 (configuration not stated)	i
Cc1ccc(CN2C(=O)NC(=O)C3(Cc4c(nc5ccccn5c4=O)N4CCCCCC43)C2=O)cc1 (configuration not stated)	i
Cc1ccc2nc(NC(=O)c3ccco3)sc2c1	1.6
CO/C([O-])=N/c1c[n+](-c2ccc(Cl)cc2)no1	i
CC1CCCN(C(=O)Cn2c(=O)oc3ccccc32)C1 (configuration not stated)	i
CN(C)S(=O)(=O)c1cccc(N=c2scc(-c3ccc4c(c3)NC(=O)CO4)n2CC2CCCO2)c1 (configuration not stated)	0.1
Cn1c(CCN2CCOCC2)nc2cc(NC(=O)COc3ccccc3)ccc21	i
Brc1cnc(N2CCCC2)nc1N1CCCCC1	1.1
CCOC(=O)c1c(Nc2nc(C)c(C(=O)NC)s2)sc(C)c1C	i
N#Cc1c(N)c(C(=O)c2ccccc2)n2c1CCC2	1.4
COC(=O)[C@H](CC(C)C)NC(=O)NC1CCCc2ccccc21 (some centres not stated)	i
Cc1ccc(NC(=O)N2CCN(Cc3ccc4c(c3)OCO4)CC2)cc1	1.7
CN(C)c1ccc(-c2nn3c(-c4ccccc4Cl)nnc3s2)cc1	i
CN(CC(O)COCc1cccs1)C1CCCCC1 (configuration not stated)	0.6
Cc1nnc(SCC2CCCO2)n1-c1ccccc1 (configuration not stated)	i
Cc1cc(C)n(CCCNC(=O)c2ccc(S(=O)(=O)NCc3ccco3)cc2)n1	i
Cn1c(C(=O)N2CCC3(CC2)OCCO3)cc2c(=O)n(C)c3ccccc3c21	0.2
O=C(CNC(=O)c1ccc(Br)o1)Nc1cccc(-c2cnc3ccccc3n2)c1	i
CCOC(=O)c1cnc(SC2CC(=O)N(c3ccc(OC)c(OC)c3)C2=O)nc1N (configuration not stated)	i
CCOC(=O)Cc1cc(-c2ccc(O)cc2)nc2ccc3ccccc3c12	1.9

Part of the list above, as labelled records:
> Cn1c(CCN2CCOCC2)nc2cc(NC(=O)COc3ccccc3)ccc21
  H5N1 antiviral = i

> O=C(Nc1ccc(Cc2ccncc2)cc1)c1ccco1
  H5N1 antiviral = i

> N#Cc1c(N)c(C(=O)c2ccccc2)n2c1CCC2
  H5N1 antiviral = 1.4

> CCC(=O)N1CCc2cc(S(=O)(=O)CCC(=O)NCCc3ccccc3)ccc21
  H5N1 antiviral = 0.5

Other compounds:
SMILES	H5N1 antiviral
COC(=O)c1sccc1-c1ccc(/C=N/OC(=O)c2ccccc2)o1	1.7
O=C(Nc1nc2ccccc2[nH]1)c1ccc(Cl)c(S(=O)(=O)N2CCCC2)c1	0.5
Cc1ccc2cccc(SCC(=O)NCc3ccco3)c2n1	1.6
COc1cc(NC(=O)C2CCCN2S(=O)(=O)c2ccc3c(c2)CCC(=O)N3)cc(OC)c1 (configuration not stated)	2.3
C=CCC(=O)OCC(=O)Nc1ccc(Cl)cn1	1.3
CCC(Sc1nc(=O)cc(N)n1CCc1ccccc1)C(=O)Nc1cc(C)on1 (configuration not stated)	i
CN1CCCN(Cc2ccc(Cl)cc2Cl)CC1	i
O=C1Nc2ccc(S(=O)(=O)N3CCCC3C(=O)O)c3cccc1c23 (configuration not stated)	1.2
CN(C)c1nc(Oc2ccc(=O)n(C)n2)nc(N2CCOCC2)n1	i
CCOC(=O)C1CCN(c2ncnc3c2oc2ccccc23)CC1	1.9
CCOC(=O)c1ccc(NC(=O)CSc2nnc(COc3ccccc3OC)n2C)cc1	i
CCS(=O)(=O)n1nc(NCc2cccc(OC)c2)nc1NCc1cccc(OC)c1	0.3
O=C(CC(Nc1ccc(F)cc1)C(=O)O)c1ccccc1 (configuration not stated)	1.2
Cc1nnc(SCC(=O)NCc2ccccc2)s1	i
COc1ccc(N2C(=O)CC(N3CCN(c4nc5ccccc5s4)CC3)C2=O)cc1 (configuration not stated)	i
CCCc1nnc(NC(=O)CN2C(=O)c3ccccc3S2(=O)=O)s1	0.4
CCc1nc(SCC(=O)NCc2ccc(F)cc2)c2c(=O)n(C)c(=O)n(C)c2n1	2.2
Cc1nc(NC(=O)CSc2nnnn2Cc2ccccc2)sc1C	0.0
CC(=O)c1c(C)[nH]c(C(=O)CSc2nnc(-c3ccc(Cl)cc3)n2CC2CCCO2)c1C (configuration not stated)	i
Cn1nnc2sc3c(c2c1=O)CCCC3	0.2

Copied from the list:
CCOC(=O)C1CCN(c2ncnc3c2oc2ccccc23)CC1 – H5N1 antiviral = 1.9
O=C(CC(Nc1ccc(F)cc1)C(=O)O)c1ccccc1 (configuration not stated) – H5N1 antiviral = 1.2
Cc1nc(NC(=O)CSc2nnnn2Cc2ccccc2)sc1C – H5N1 antiviral = 0.0

(next part)
SMILES	H5N1 antiviral
O=C(Cc1ccc(-n2cnnn2)cc1)NC12CC3CC(CC(C3)C1)C2	i
CCOc1ccc(NC(=O)CCSc2nnc(C)s2)cc1	0.6
O=C(CN1CCOCC1)N(c1ccccc1)c1ccc2ccccc2c1	1.4
Cc1cc(/C=N/n2cnnc2)c(C)n1-c1ccc(C(=O)O)cc1	0.7
COc1ccc(C(=O)NC(=S)N(Cc2ccccc2)Cc2ccccc2)cc1	3.9
CCOC(=O)Cn1c(-c2cccnc2Cl)nc2ccccc21	i
O=C(NCc1ccccc1)c1ccc(S(=O)(=O)C(F)F)cc1	0.1
CC(C)c1ccc(NC(=O)Nc2cc3sccc3n2C)cc1	i
NC(=O)CSc1nnc(-c2ccncc2)n1-c1ccc(Cl)cc1	0.7
COc1cc(NS(=O)(=O)c2ccc3c(c2)n(C)c(=O)n3C)cc(OC)c1	0.2
CN1CCN(c2ccc([N+](=O)[O-])cc2C(=O)c2ccc(Cl)cc2)CC1	i
O=C(Cn1cnc2ccccc2c1=O)Nc1cccc(-c2nnc3n2CCCCC3)c1	i
CCn1c(SCC(=O)Nc2oc(-c3ccccc3)c(-c3ccccc3)c2C#N)nnc1-c1ccco1	0.4
CC1CN(c2nc3c(c(=O)n(Cc4ccc(Cl)c(Cl)c4)c(=O)n3C)n2C)CC(C)O1 (configuration not stated)	i
Nc1nc(-c2ccc(Br)cc2)cs1	i
CCCCn1c(-c2cccs2)nc2nc3ccccc3nc21	i
COc1ccc(CCNC(=O)CN2C(=O)c3ccccc3S2(=O)=O)cc1OC	1.4
COc1ccc(CCNC(=O)c2cnc3n(c2=O)CCS3)cc1OC	i

Looked up one by one from the entries so far (4):
SMILES	H5N1 antiviral
COc1cc(NS(=O)(=O)c2ccc3c(c2)n(C)c(=O)n3C)cc(OC)c1	0.2
O=C(CN1CCOCC1)N(c1ccccc1)c1ccc2ccccc2c1	1.4
CCCCn1c(-c2cccs2)nc2nc3ccccc3nc21	i
O=C(Cc1ccc(-n2cnnn2)cc1)NC12CC3CC(CC(C3)C1)C2	i
